Beta cell apopt – blocks beta cell apoptosis. INS-1E cytokine-induced death, ATP luminescence, 48 h; percent of positive-control rescue, neutral wells zero. protection from apoptosis, % (no concentration beside the values). 300,000 tested, 0.8% active. AID 435005;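 active = all replicates at 75% or more, or half of them and the mean; inconclusive = half reach 75% but not the mean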;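 note: 0% = cytokine-treated negative control wells and 100% = positive control rescue; higher means more ATP so stronger rescue from cytokine killing; wells of about 40 µL received 100 nL stock; the first replicate is given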
LANA-H2B inh – blocks KSHV LANA binding to histone H2A/H2B; inhibition, % (test concentration not listed); 320,000 tested, 0.6% active; Q9QR71; cell-free LANA-H2A/H2B peptide, fluorescence polarization; in the data active = inhibition mostly above about 10%, no sharp cut-off; inactive = mostly below about 6.7%;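 note: stock transfer was 7.5 nL into about 10 µL; 0% = median of vehicle wells and 100% = median of positive control wells; one replicate is shown; the record names a cut of 25% in any replicate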
Target sequence (Q9QR71 whole entry, looked up): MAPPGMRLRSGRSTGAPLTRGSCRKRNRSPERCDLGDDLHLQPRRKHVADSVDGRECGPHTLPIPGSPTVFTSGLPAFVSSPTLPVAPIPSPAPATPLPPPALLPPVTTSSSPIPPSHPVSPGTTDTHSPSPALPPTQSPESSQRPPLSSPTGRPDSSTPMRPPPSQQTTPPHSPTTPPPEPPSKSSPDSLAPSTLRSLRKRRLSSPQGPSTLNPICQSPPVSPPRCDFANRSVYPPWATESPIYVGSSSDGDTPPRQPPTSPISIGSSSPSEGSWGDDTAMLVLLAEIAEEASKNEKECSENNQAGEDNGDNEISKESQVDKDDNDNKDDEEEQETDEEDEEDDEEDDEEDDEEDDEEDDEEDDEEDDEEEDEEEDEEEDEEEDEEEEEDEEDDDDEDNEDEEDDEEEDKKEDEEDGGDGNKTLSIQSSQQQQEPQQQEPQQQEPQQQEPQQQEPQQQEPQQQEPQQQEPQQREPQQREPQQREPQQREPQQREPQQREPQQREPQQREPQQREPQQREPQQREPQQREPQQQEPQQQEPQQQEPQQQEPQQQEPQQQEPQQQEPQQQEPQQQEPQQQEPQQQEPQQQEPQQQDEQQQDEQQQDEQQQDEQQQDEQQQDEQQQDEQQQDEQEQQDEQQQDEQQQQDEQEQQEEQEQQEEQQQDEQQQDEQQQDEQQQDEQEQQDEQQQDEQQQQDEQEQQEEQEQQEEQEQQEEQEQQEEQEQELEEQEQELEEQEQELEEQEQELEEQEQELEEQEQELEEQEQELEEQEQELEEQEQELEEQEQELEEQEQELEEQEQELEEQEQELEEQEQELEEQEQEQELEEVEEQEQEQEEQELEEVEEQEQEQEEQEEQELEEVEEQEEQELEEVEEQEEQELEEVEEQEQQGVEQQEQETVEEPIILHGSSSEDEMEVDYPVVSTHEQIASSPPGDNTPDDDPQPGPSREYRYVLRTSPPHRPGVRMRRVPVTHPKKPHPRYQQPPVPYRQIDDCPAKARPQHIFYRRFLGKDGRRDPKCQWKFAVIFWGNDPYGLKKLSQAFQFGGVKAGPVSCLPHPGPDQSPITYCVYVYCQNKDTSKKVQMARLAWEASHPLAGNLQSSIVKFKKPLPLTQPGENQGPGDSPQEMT
Calb FLC – C. albicans growth modulation with fluconazole; C. albicans CaCi-2 (fluconazole-resistant clinical isolate) + fluconazole, Alamar Blue growth, 48 h; growth inhibition, % (no concentration beside the values); 300,000 tested, 0.57% active; AID 1979;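 active = most replicates above 75%; inconclusive = exactly half above 75%; inactive = most below 75%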;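 note: all wells also contain fluconazole at 8 µg/ml as a sub-toxic cotreatment; 0% = median of DMSO wells and 100% = median of geldanamycin control wells; wells of about 8 µL received 7.5 nL stock; the first replicate is given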
Ecoli rRNA inh – selective bacterial rRNA inhibition in E. coli | E. coli WT GFP vs humanized-ribosome RFP mutants, fluorescence, 24 h; stronger effect = lower value; DMSO median 0, no signal -100 | GFP signal change (wild-type ribosome), % (no concentration beside the values) | 350,000 tested, 1.6% active;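 active = significant combined selectivity score with lowered wild-type GFP, culture density cut under 30%, mutant RFP and density less affected; inactive = any of these conditions unmet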; note: one replicate is shown; some compounds called inactive have numbers as strong as hits
T cruzi inh – T. cruzi replication inhibition; inhibition, % (no concentration beside the values); 300,000 tested, 1.4% active; T. cruzi beta-gal in NIH3T3, luminescence, 90 h;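 active = mean inhibition across valid replicates above about 55%, limit read from the data; inconclusive = mean below that limit but half or more replicates reach it; inactive = mean below it, under half of replicates reach it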;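 note: signal also drops with host cell toxicity which is not excluded here; 0% = plate median of DMSO wells and 100% = zero luminescence signal; higher percent means less beta-gal luminescence so fewer parasites; stock transfer was 50 nL into about 50 µL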
ALR inh – human ALR oxidase inhibition via reduced H2O2; purified ALR, DTT oxidation, H2O2 HRP-luminol luminescence; AID 485317; 290,000 tested, 3.8% active; inhibition, % (test concentration not listed); P55789;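 active = mean and each replicate at 75% or more; inconclusive = only one of the two met; inactive = neither met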;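 note: stock transfer was 7.5 nL into about 7.5 µL; 0% = neutral wells and 100% = wells with inactivated enzyme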
Beta2AR agonist – activates human beta-2 adrenergic receptor causing internalization; 340,000 tested, 0.43% active; AID 504454; response, % (concentration not given with the values); P07550; Am2.2-beta2AR cells, FAP receptor internalization, flow cytometry; reference of the scale not given here;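 active = response above a set limit, near 3 SD of response in nonfluorescent compounds, cut at about 42% in these data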;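 note: stock transfer was 100 nL into about 11 µL; a reference agonist was the positive control; negative values mostly stem from fluorescent compounds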
Bfl-1 A1 inh – inhibitors of the anti-apoptotic protein A1, read as caspase activation; MEF A1-2A-BIM cells, Caspase-Glo 3/7 luminescence, 3 h; percent of clofoctol response, vehicle zero; caspase activation, % (test concentration not listed); 330,000 tested, 0.066% active; AID 2462;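 active = over half of replicate activation scores above 10%, or exactly half above 10 with the replicate mean above 10; inconclusive = replicate mean below 10 yet half the replicates above 10; inactive = over half of replicates below 10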;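 note: wells of about 30 µL received 50 nL stock; many hits fall short of the cut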
Ecoli rRNA inh OD600 – second read-out of Ecoli rRNA inh, no call of its own (marks repeat the call); OD600 change, %; measured here: OD600 growth;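 optical density of the mix in the first replicate; 0 = DMSO median and -100 = no signal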
Ecoli rRNA inh RFP – also measured in Ecoli rRNA inh; calls as there; RFP signal change, %; measured here: RFP humanized mutant strains;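 first replicate; 0 = DMSO median and -100 = no signal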
Active calls of the source: *; ? = inconclusive; / = no result given; & = joins results of further samples. These rows are one share of the data; count on the stated rates, not on these rows.

SMILES	Beta cell apopt	LANA-H2B inh	Calb FLC	Ecoli rRNA inh	Ecoli rRNA inh OD600	Ecoli rRNA inh RFP	T cruzi inh	ALR inh	Beta2AR agonist	Bfl-1 A1 inh
COC(=O)c1ccc(-c2nc(CN3CCC(C(=O)N4CCOCC4)CC3)c(C)o2)cc1	-7	-1.3	-4	/	/	/	-7	0	-6	0.4
Cc1cccc(C)c1NC(=O)CS(=O)CC(=O)Nc1ccc(F)cc1F (stereo unspecified)	1	0.5	-3	/	/	/	-9	-17	5	0.0
COc1ccc(NC2CCCN(C(=O)c3ccccc3C(F)(F)F)C2)cc1 (stereo unspecified)	-1	1.7	-5	4	9	1.0	4	99*	2	-0.5
O=C(O)CC1S/C(=N/N=C/C=C/c2ccccc2)NC1=O (stereo unspecified)	-7&-3	3.0&0.0	-20&2	19	12	-3.9	-10&-4	-2	-1&5	-3.4&-6.3
CCOc1ccc(N(CC(=O)N2CCCCC2)S(=O)(=O)c2ccc(Cl)cc2)cc1	1	-0.5	-4	1	-13	3.3	17	-2	-16	0.6
O=C(C1CCC(CNc2c(N3CCCCC3)c(=O)c2=O)CC1)N1CCN(c2ccccn2)CC1 (stereo unspecified)	10	-0.2	-8	7	4	-2.6	-14	/	-10	-0.5
CCOc1ccc(/C(C)=N/NC(=O)C(OC)c2ccccc2)cc1 (stereo unspecified)	-3	/	0	11	9	-0.3	-16	/	-6	-0.9
CC(=O)NCCc1nc2ccccc2n1Cc1ccc(C)cc1	-4	-0.5	1	-2	-2	-3.5	-8	-23	-2	0.9
O=C1CC(N2CCN(Cc3ccc4c(c3)OCO4)CC2)C(=O)N1c1cccc2ccccc12 (stereo unspecified)	-3	1.0	-20	17	11	1.4	-15	-3	3	1.8
CCCN1CCN(C(=O)c2ccc(F)c(S(=O)(=O)N3CCOCC3)c2)CC1	-3	3.1	/	3	7	-2.9	/	0	4	0.0
CC(C)c1ccc(NC(=O)C2CC2c2ccccc2)cc1 (stereo unspecified)	-1	-4.5	4	-35	-65	1.0	-6	40	12	0.8
CC(C)Nc1cc(N2CCCC2)ccc1[N+](=O)[O-]	-17	-3.8	15	2	-5	-3.6	21	1	3	1.0
O=C1Nc2ccccc2S/C1=C/c1cccs1	/	6.6	-1	/	/	/	1	/	2	-2.4
COc1cc(OC)c(N2CC(C(=O)Nc3cc(Cl)ccc3N3CCOCC3)CC2=O)cc1Cl (stereo unspecified)	26	3.1	/	-7	-13	2.3	/	-7	12	1.4
N#CCCc1cccc(CCC#N)c1	-5	3.7	-1	7	-1	2.0	-24	-4	3	-0.6
Cc1cc(C)n(CC(=O)NC2CCCCC2C)c(=O)c1C#N (stereo unspecified)	/	-5.0	-8	1	1	-0.7	2	1	-2	-0.1
COc1cccc(C(=O)NNC(=O)Cc2csc(N)n2)c1	0	1.4	27	13	4	6.4	-7	17	-7	1.0
N#Cc1c(NC(=S)NC(=O)Cc2cccs2)sc2c1CCCCC2	-11	-1.5	14	/	/	/	9	/	22	0.9
COc1ccc(C(=O)Cn2nnc(-c3ccccc3NC(=O)C3CCCCC3)n2)cc1	/	2.4	-6	/	/	/	15	-6	13	0.8
Cc1ccc(C)c(N(CC(=O)NC2CCCC2)C(=O)c2oc(C(C)(C)C)cc2C)c1	/	-4.2	-1	-16*	6.1*	2.7*	33	-5	21	-0.6

One compound at a time, from the list above. Order of screens: Beta cell apopt, LANA-H2B inh, Calb FLC, Ecoli rRNA inh, Ecoli rRNA inh OD600, Ecoli rRNA inh RFP, T cruzi inh, ALR inh, Beta2AR agonist, Bfl-1 A1 inh
CCOc1ccc(/C(C)=N/NC(=O)C(OC)c2ccccc2)cc1 (stereo unspecified) is entered as -3, /, 0, 11, 9, -0.3, -16, /, -6, -0.9
O=C1Nc2ccccc2S/C1=C/c1cccs1 is entered as /, 6.6, -1, /, /, /, 1, /, 2, -2.4

Continuation:
SMILES	Beta cell apopt	LANA-H2B inh	Calb FLC	Ecoli rRNA inh	Ecoli rRNA inh OD600	Ecoli rRNA inh RFP	T cruzi inh	ALR inh	Beta2AR agonist	Bfl-1 A1 inh
O=C(NCc1ccccn1)c1n[nH]c2ccccc12	-1	-3.9	0	/	/	/	3	-2	4	-1.2
CCN(CC(=O)Nc1ccccc1C(F)(F)F)C(=O)Cc1cccs1	1	3.0	/	2	6	4.1	/	/	2	-0.1
O=C(CCNC(=O)c1ccccc1)N/N=C/c1ccc([N+](=O)[O-])cc1	9	-4.0	-13	5	6	0.8	-5	-1	-13	0.0
O=C(O)CC(C(=O)O)n1nc(-c2ccccc2)cc1-c1ccccc1 (stereo unspecified)	10	-0.6	17	/	/	/	-12	10	-5	1.0
COc1cc(NC(=O)CSc2nnc(NC(C)C)s2)cc(OC)c1OC	-4	-1.6	-14	-16	-11	0.7	-7	46	8	0.0
COc1ccc(-c2cc(C(F)(F)F)nc(-n3cncn3)n2)cc1	-3	-2.5	11	/	/	/	12	-11	-6	1.0
Cc1ccc2c(c1)nnn2C1CCN(CC(=O)Nc2ccc(F)cc2)CC1	-2	2.2	0	-14	-18	4.7	-9	/	8	0.2
CCOC(=O)C1(Cc2ccccc2)C(=O)N(CCCN(C)C)c2ccccc21 (stereo unspecified)	-5	3.9	-9	5	-8	2.3	15	-5	1	1.1
Cc1cn(Cc2ccccc2Cn2cc(C)c(=O)[nH]c2=O)c(=O)[nH]c1=O	1	3.4	-1	19	10	2.7	-9	1	-8	0.3
CCCC1C2C(=O)N(c3ccccc3OCC)C(=O)C2ON1c1ccccc1 (stereo unspecified)	-8	0.5	40	/	/	/	-5	-1	0	0.5
O=CN1CCN(c2ncnc3c2nnn3Cc2c(F)cccc2Cl)CC1	/	3.7	-3	-2	-12	2.8	9	-52	-1	-0.4
Cc1ccc(C)c(NC(=O)CN(C)C(=O)CCN2C(=O)c3ccccc3C2=O)c1	-2	1.6	-6	/	/	/	-10	-3	0	0.1
CC(/C=C1\NC(=S)NC1=O)=C\c1ccccc1	-3	0.4	-2	-9	-8	-4.8	-2	35	18	0.5
O=S(=O)(NCc1ccccn1)c1cc(C(F)(F)F)ccc1Cl	-6	-2.0	7	3	4	-3.8	-16	1	-14	-0.2
Cc1noc(C)c1COC(=O)Cc1ccc(Br)cc1	-8	-4.7	4	-9	-15	-5.6	0	0	36	-0.2
CC(=O)Nc1cc(C(=O)NCCN2CCN(Cc3ccccc3)CC2)ccc1Sc1ccc(C)cc1	1	-0.7	6	-1	-7	0.7	6	-7	-1	0.1
O=C(/C=C/c1ccc([N+](=O)[O-])cc1)NCCN1C(=O)S/C(=C\c2ccc(F)cc2)C1=O	13	-0.1	-8	4	7	9.8	-13	-18	-5	0.7
COc1ccc(NC(=O)Cn2c(C)cc(=O)c3cccc(OC)c32)cc1	0	0.8	19	/	/	/	-25	5	5	0.0
Cc1ccc(-c2csc(NC(=O)c3ccc4c(=O)n5c(nc4c3)CCCCC5)n2)cc1	7	0.7	1	6	-1	1.2	26	/	20	0.2
COC(=O)c1cc(S(=O)(=O)NCCCN2CCCC2=O)cn1C	-9	4.7	12	6	9	-1.4	-15	-4	6	2.5
CCC1CCC(C(=O)NC(CCSC)C(=O)NCCc2ccc(S(N)(=O)=O)cc2)CC1 (stereo unspecified)	-4	-6.1	-7	1	-2	-2.2	1	1	10	0.7
COC(=O)c1cn(NC(=O)c2cccnc2)c(=O)c2ccccc12	1	1.6	36	/	/	/	-5	-6	-4	0.8
O=C1CNC(=S)N1CCc1ccccc1Cl	-5	-2.1	?	/	/	/	-5	10	-5	-0.3
CC1CCN(C(=O)Cn2cc(C(=O)c3ccco3)c3ccccc32)CC1	-8	5.1	12	/	/	/	3	/	-8	0.6
NS(=O)(=O)c1ccc(NCC2COc3ccccc3O2)c([N+](=O)[O-])c1 (stereo unspecified)	5	-6.1	14	-21	-28	-3.0	5	-3	6	0.9
CCC(C)NCC(O)COCc1ccc(Cl)cc1 (stereo unspecified)	-7	-9.1	1	/	/	/	16	/	-6	-0.1
Cc1nn(C)cc1/C=C(/C#N)C(N)=O	-5	-1.5	-5	/	/	/	-1	-24	1	0.4
O=C(c1ccc([N+](=O)[O-])cc1[N+](=O)[O-])N1CCc2ccccc21	2	2.7	27	0	2	-3.5	58*	-33	2	-0.7
COc1ccc(CNC(=O)c2ccc3oc(C(C)C)nc3c2)cc1	4	-3.6	15	-6	-15	0.5	17	-10	-5	-0.2
Cc1oc2c(c(C)cc3oc(=O)c(CC(=O)NCCCN4CCCC4=O)c(C)c32)c1C	/	4.8	0	/	/	/	-9	9	2	0.3
Cc1ccc(C2(c3noc(CN4CCC(C(=O)N5CCOCC5)CC4)n3)CCCC2)cc1	-2	-0.3	0	-7	-12	-2.1	12	/	-2	0.8
COc1ccc(/C=C2\CCC(C3CCCC3)C2=O)cc1Cn1nc(C)cc1C (stereo unspecified)	-7	-1.9	20	/	/	/	9	-8	1	-2.1
COc1cc2c(cc1OC)CN(C(=O)c1ccc3[nH]c(C)c(C)c3c1)CC2	-2	3.3	-2	-1	-2	2.2	-11	/	5	0.3
CCc1ccc(N2CC(C(=O)NCCC3=CCCCC3)CC2=O)cc1 (stereo unspecified)	-1	-1.8	-19	12	12	0.8	1	0	-7	-0.9
O=C(CN1CCC(NC(=O)c2cccc(F)c2)CC1)Nc1ccc(Br)cc1	/	-2.5	-9	-12	-18	-2.9	-6	0	-2	0.0
CC(C)Oc1ccc(S(=O)(=O)N2CCCCC2)cc1NC(=O)CC1OC(=O)c2ccccc21 (stereo unspecified)	2	-6.9	/	-4	-2	3.1	14	-1	4	-0.1
N#C/C(=C\c1c[nH]c2ccccc12)c1nnc2n1CCCCC2	-5	-0.5	1	/	/	/	-1	-2	-7	0.3
S=C1NC2CCCCC2N1 (stereo unspecified)	/	3.5	12	12	10	-3.2	-2	-22	3	-1.0
O=S(=O)(c1ccccc1)c1nc(-c2ccccc2)oc1N1CCOCC1	-3	-4.2	-8	4	-6	-0.7	5	51	1	1.0
COc1ccc(C(O)(CCC(C)C)C(CN2CCOCC2)c2ccc(Cl)cc2)cc1 (stereo unspecified)	22	3.1	2	6	6	0.3	3	-6	13	-0.1
CCn1c(CCl)nc2cc(S(=O)(=O)N3CCOCC3)ccc21	-2	4.2	/	10	2	3.5	/	-7	/	0.2
COCCNc1nc(N)c([N+](=O)[O-])c(N2CCCCCC2)n1	0	3.1	1	5	4	0.7	-6	-12	2	-2.0
Cc1ccc(NC(=O)CC2C(=O)NCCN2C(=O)c2ccc(F)cc2)cc1 (stereo unspecified)	-5	2.3	-3	6	6	-1.8	-5	1	-1	-0.3
CCCn1c(=O)c2c(nc3n2CC(C)CN3Cc2ccccc2)n(C)c1=O (stereo unspecified)	6	-0.4	-8	-8	-2	-0.4	-9	-4	-8	0.3
CCOC(=O)CN1C(=O)CC(c2ccc([N+](=O)[O-])cc2)C1=O (stereo unspecified)	-3	-8.9	2	3	7	-3.1	2	-12	-5	?
COc1cccc(NC(=S)Nc2ccc(Br)cc2Cl)c1	2	3.0	9	-3	7	0.2	5	-8	25	1.2
